# Rce1 inhib – inhibitors of yeast Ras-converting enzyme | Q03530 | calls only | 290,000 tested, 0.27% active | yeast membranes, quenched prenylated peptide cleavage fluorescence;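 active = fall in fluorescence gain of 50% or more versus controls, with final raw signal at or below 3038400; inconclusive = same 50% fall but final raw signal above 3038400; inactive = fall in fluorescence gain under 50%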;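 note: plate controls were neutral control wells for no effect and wells lacking membranes for full effect; tested at 10 µM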
# Target sequence (Q03530 whole entry, looked up): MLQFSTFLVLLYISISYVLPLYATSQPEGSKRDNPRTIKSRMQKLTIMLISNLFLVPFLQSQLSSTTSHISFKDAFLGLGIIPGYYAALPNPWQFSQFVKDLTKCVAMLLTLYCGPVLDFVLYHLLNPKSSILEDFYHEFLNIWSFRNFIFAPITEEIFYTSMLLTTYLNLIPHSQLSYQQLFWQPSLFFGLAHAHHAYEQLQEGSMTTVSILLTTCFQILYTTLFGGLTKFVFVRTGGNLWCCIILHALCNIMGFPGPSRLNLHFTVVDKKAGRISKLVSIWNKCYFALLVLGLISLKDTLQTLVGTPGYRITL
# HIV Env fusion – HIV envelope-mediated fusion inhibition; 360,000 tested, 1.1% active; inhibition, % at 12.3 µM; HeLa-JRFL Env/CEM21 cell fusion, luciferase; AID 651610;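 active = mean replicate inhibition score of at least 50 and every replicate individually at or above 50; inconclusive = only one of the two criteria met; inactive = mean below 50 and not all replicates reaching 50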;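 note: 0% = plate neutral controls and 100% = maraviroc near 300 nM; one replicate is shown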
# CSC inhib – cancer stem cell inhibition | cancer stem cell-like cells viability, luminescence | inhibition, % at 7.5 µM | 300,000 tested, 1.1% active | AID 2717;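 active = mean at 75% or more and at least half the replicates too; inconclusive = mean and replicates disagree; tested in HMLE shEcad cells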;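 note: 0% = median of negative and 100% = median of positive control wells; the first replicate is given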
# UUG fidelity – modulators of start codon recognition fidelity in yeast. S. cerevisiae UUG-firefly luciferase reporter, luminescence/redox ratio. activity score, % at 18.7 µM. 350,000 tested, 0.13% active;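 active = replicate mean at a twofold rise or more, about +100% in these data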;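 note: firefly luciferase made from a UUG start codon reports start codon fidelity; reporter light over untreated wells divided by growth signal over untreated wells; some hits fall short of that in this replicate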
# MT1-MMP act inh – blocks activation of human MT1-MMP. P50281. HT1080 RFP-PRO-GFP cells, GFP/RFP ratio fluorescence, overnight; percent of plate control window, DMSO zero. GFP/RFP ratio change, % at 20 µM. 360,000 tested, 0.061% active;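 active = GFP/RFP ratio change of at least 30% with cell ATP level not reduced by more than half and red fluorescence within 50% of control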; note: strong numbers were not always called active
#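 Compound: 20 µM single dose, 1% DMSO / System: HT1080 RFP-PRO-GFP cells / Controls: DMSO and RFP-L50D-GFP cell wells / Read-out basis: GFP/RFP fluorescence ratio / Schedule: overnight compound exposure at 37 °C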
# PABP FP inh – blocks human PABP binding to poly(A) RNA; P11940; fluorescence polarization; inhibition, % at 35 µM; 290,000 tested, 1% active; AID 2014;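 active = 50% or more with normal probe brightness, or confirmed in later tests; inconclusive = above 50% with abnormal brightness, or retests that disagree; inactive = below 50% or failed in later tests; about a fifth of its hits are not listed in these tables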;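 note: calls also rest on retests at 20 µM and on dose response follow-up; controls were probe without protein and protein plus probe with vehicle; some compounds called inactive have numbers as strong as hits; many hits fall short of the cut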
# eIF4H inh – inhibitors of RNA binding by human eIF4H. Q15056. eIF4H fluorescence polarization binding assay. inhibition, % at 35 µM. 290,000 tested, 0.94% active. AID 2012;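 active = 50% or more with normal probe brightness, or confirmed in later tests; inconclusive = above 50% with abnormal brightness, or retests that disagree; inactive = below 50% or failed in later tests; about a fifth of its hits are not listed in these tables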;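 note: calls also rest on retests at 20 µM and on dose response follow-up; 0% = protein and probe with vehicle and 100% = probe without protein; strong numbers were not always called active; many hits fall short of the cut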
# MT1-MMP act inh RFP – also measured in MT1-MMP act inh; calls as there; RFP signal change, %; measured here: RFP expression control read;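 0 = vehicle wells; hits needed this value within 50% of zero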
# An asterisk follows results filed as active; i = inactive; ? = inconclusive; . = not tested or not shown.
SMILES,Rce1 inhib,HIV Env fusion,CSC inhib,UUG fidelity,MT1-MMP act inh,MT1-MMP act inh RFP,PABP FP inh,eIF4H inh
O=Cc1cc(N=Nc2ccc(S(=O)(=O)O)cc2)ccc1O,i,0,-6,.,7,-1,.,.
Oc1ccc(/C=N/N=C/c2ccc(O)cc2)cc1,.,-10,-6,.,0,4,7,8
CC1(C)Oc2ccc3ccc(=O)oc3c2-c2cnoc21,i,19,-14,-1,-1,6,2,17
OC(CN1CCOCC1)CN1CCOCC1,i,.,-12,-18,1,6,8,1
CC(=O)c1cc2c(cc1NC(=O)C1CC1)OCO2,i,.,-4,-33,-3,0,13,0
COc1cccc(NC(=O)CN2C(=O)NC(Cc3c[nH]c4ccccc34)C2=O)c1 (configuration not stated),.,4,3,-14,8,3,.,.
Cc1ccc(C)c(S(=O)(=O)N2CCN(C(=O)c3cncc(Br)c3)CC2)c1,i,-9,.,-1,1,1,-4,32
CC(C)C[C@@]12C(=O)N(c3cccc(F)c3)C(=O)N1[C@H](c1ccc(Cl)cc1)[C@@H]1C(=O)N(C3CCCCC3)C(=O)[C@@H]12,i,95*,6,-11,-7,-9,.,.
COC(=O)C1CSC(c2ccc(Cl)cc2)N1C(=O)c1ccccc1 (configuration not stated),i,21,-14,-8,-8,-3,7,-13
Cn1c(=O)c2c(nc(SCCCO)n2Cc2ccccc2Cl)n(C)c1=O,i,-75,-6,-4,-2,2,6,-1
Nc1ccc(S(=O)(=O)Nc2nccc(/C=C/c3ccc(Cl)cc3)n2)cc1,i,-10,.,-16,-3,-1,-3,-5
COCCCNCC1C(Oc2ccc(Cl)cc2)C(=O)N1c1ccccc1C (configuration not stated),i,-12,18,1,-3,-2,13,7
O=C(CNC(=O)c1cccc(OC(F)F)c1)OCn1nnc2ccccc2c1=O,i,17,-10,.,0,2,7,3
COc1ccc(OC)c(NC(=O)c2c(NC(=O)CCC(=O)O)sc3c2CCCCC3)c1,i,.,28,.,-6,-3,4,23
CC(=O)N1CCN(c2ccc(NCc3ccc(C(C)C)cc3)cc2)CC1,i,-17,21,-16,6,-1,-6,9
O=C(N/N=C/c1ccc2c(c1)OCO2)c1ccc(COCC(F)(F)C(F)F)cc1,i,.,83*,-6,2,-2,7,4
Cc1cc(C)cc(NC(=O)COC(=O)CNC(=O)C2CCCCC2)c1,.,-5,-10,.,3,6,.,.
Cc1cnc(NCCc2ccccc2)s1,i,-3,0,-22,-4,-1,1,19
COc1ccc(Cc2nc3ccc(C(=O)NC(C)c4cn(C)nc4C)cc3o2)cc1 (configuration not stated),i,7,-13,-3,6,-5,7,-7
O=C(NCCc1ccccc1)c1ccc2nccnc2c1,i,29,3,.,0,1,48,41
COc1cc2c(cc1OC)-c1nnc(C)n1C1(CCCC1)C2,i,-4,-14,-5,2,1,-13,-5
Cc1ccc(N(C)S(=O)(=O)c2cccc(C(=O)OCC(=O)c3c(N)n(C)c(=O)n(C)c3=O)c2)cc1,.,3,-9,-4,-6,-12,.,.
CC(C)OC(=O)Nc1ccc2c(c1)N(C(=O)CCN(C)C)c1ccccc1CC2,i,8,-4,6,3,2,0,3
Cc1cc(-c2n[nH]c(=S)n2/N=C/c2cccs2)n[nH]1,i,-2,-1,.,4,2,-1,3
CC(C(=O)NC1=NCCS1)N1C(=O)C2CC=CCC2C1=O (configuration not stated),i,.,0,-16,-1,3,6,8
Cc1nccn1CC(O)COc1ccccc1 (configuration not stated),i,.,-6,-20,3,0,-2,0
O=C(CSc1n[nH]c(=O)n1-c1ccccc1)N1CCOCC1,i,-3,8,-4,0,5,4,2
CCOP(=O)(c1ccc(N(C)C)cc1)C(O)c1cc(OC)c(OC)c(OC)c1 (configuration not stated),i,-60,-15,-21,2,6,4,9
CCOc1cccc(C(=O)Nc2cccc(-c3nc4ncccc4o3)c2C)c1,i,-40,10,-6,7,0,3,-4
Cc1cccc(C(=O)Nc2sc3c(c2C(=O)O)CCC3)c1,i,-11,7,-14,2,4,7,1
CCc1onc(C)c1C(=O)O,i,-2,0,-15,-5,0,15,2
CC(=O)c1cccc(NC2c3ccccc3C(=O)N2Cc2ccc3c(c2)OCO3)c1 (configuration not stated),i,7,0,-9,-1,-4,-1,-8
CC(C)N1C(=O)S/C(=C\c2ccc(-c3ccc(Cl)c(C(=O)O)c3)o2)C1=O,i,-120,2,-16,-6,5,20,29
COCCCn1c(=NC(=O)c2ccncc2)c(C#N)cc2c(=O)n3cccc(C)c3nc21,i,-73,-3,-5,7,5,?,?
CSc1nsc(NN)n1,.,-54,.,-28,-6,1,.,.
O=c1ccc(-c2ccc([N+](=O)[O-])cc2)nn1-c1ccccc1,i,13,-3,.,2,8,-12,-10
COC(=O)c1cc(NC(=O)/C=C/c2ccccc2)ccc1O,i,-8,-6,.,.,.,-1,4
CC1CC(=O)Nc2ccccc2N1C(=O)CSc1nnnn1C (configuration not stated),.,-5,-9,.,1,-1,.,.
CCn1c(SCC(=O)Nc2cc(C)on2)nnc1-c1ccc(S(=O)(=O)N2CCN(C)CC2)cc1,i,-17,-15,-20,-1,3,29,36
c1ccc(C2C/C(=N\N3CCOCC3)c3ccccc3O2)cc1 (configuration not stated),i,0,-5,-10,1,-3,4,-4
Cc1cc(NN)nc(Cc2ccccc2)n1,i,-3,-7,-5,-2,1,11,-9
COC(=O)c1ccc(C2c3c(oc4cc(C)c(C)cc4c3=O)C(=O)N2CCCN(C)C)cc1 (configuration not stated),i,.,5,.,.,.,-7,-6
CCN1/C(=C2/SC(=S)NC2=O)Sc2ccccc21,.,-263,3,.,-2,-1,-1,11
Cn1c(/C=N/Nc2nc3ccccc3[nH]2)nc2ccccc21,i,-269,33,.,12,9,9,19
CCOc1ccc(N=C2C(=O)Nc3ccc(C)c(Br)c32)cc1,i,-1,6,-19,0,8,-10,1
Cc1cc2c3c(c1)C(C)CC(C)(C)N3C(=O)C2=C(C#N)C#N (configuration not stated),i,-16,15,-8,-6,-4,-6,-6
Cc1ccc(-c2cn3cc(C)ccc3n2)cc1,i,61*,7,.,5,-2,-2,-7
COc1ccc(OC)c(CN(CCN2CCOCC2)C(=O)Nc2ccccc2)c1,i,-4,-7,-19,-4,2,5,2
CC(C)(c1cc(Cl)c(O)c(CN2CCOCC2)c1)c1cc(Cl)c(O)c(CN2CCOCC2)c1,.,0,.,1,-3,-8,.,.
COc1ccc(C(C)(C)C)cc1NC(=O)CN1C(=O)C(=O)N(Cc2ccco2)C1=O,.,10,-1,-10,0,4,.,.
# Next compounds follow:
SMILES,Rce1 inhib,HIV Env fusion,CSC inhib,UUG fidelity,MT1-MMP act inh,MT1-MMP act inh RFP,PABP FP inh,eIF4H inh
CCn1cc(S(=O)(=O)Nc2cc(C(=O)OC)ccc2C)cn1,i,13,-5,-9,-1,1,7,-2
Cc1ccc(Oc2ccc(OCC(=O)NC(C)C(=O)O)cc2)cc1 (configuration not stated),i,.,-8,-2,2,-2,13,-3
CCOc1ccc(NC(=O)C2CCCN(C(=O)Nc3ccccc3)C2)cc1 (configuration not stated),i,-28,13,-13,2,6,13,10
CC(C)n1c(Oc2ccc(F)cc2)nc2c1c(=O)n(C)c(=O)n2C,i,0,-10,.,-3,-5,-5,3
Cc1cc(C(F)(F)F)n2ncc(C(=O)O)c2n1,i,7,-7,-14,0,0,2,-11
COC(=O)c1sccc1NC(=O)CC1C(=O)NCCN1C(=O)c1ccc(N(C)C)cc1 (configuration not stated),i,16,2,-5,2,5,0,10
CN1CCN(CCCNC(=O)c2ccc(CSCc3cccc(Cl)c3)o2)CC1,i,.,-7,.,.,.,7,-11
Cc1ccc(C(=O)NNC(=O)c2ccoc2C)s1,.,-2,.,-13,0,-2,.,.
CCNC(=O)CON=C1c2ccccc2-c2ccccc21,i,1,-9,.,-8,-3,-2,5
COc1cc(OC)cc(C(=O)Nc2cccc3nc(C)ccc23)c1,i,17,.,-1,-3,0,-6,3
CCOC(=O)c1c(NC(=O)CSc2nc3ccccc3s2)sc(C(C)=O)c1C,i,.,-6,.,-11,-22,-13,0
CNC(=O)C(=O)NCCC1CCCCN1S(=O)(=O)c1cccs1 (configuration not stated),i,-9,-15,35,-3,2,.,.
COc1ccc(C2=NOC(C)(c3nnc(-c4ccncc4)o3)C2)cc1 (configuration not stated),i,5,-8,-12,5,-3,.,.
CC(=O)N(Cc1c(C)nn(-c2ccccc2)c1Cl)c1ccc(Cl)cc1,i,-131,-12,1,-7,-7,-9,-6
O=S(=O)(NCc1ccccc1)c1ccc(-n2cccn2)cc1,i,-1,7,-1,1,0,-8,-21
CN(CCC(=O)Nc1ccc(Cl)cc1)Cc1ccccc1,i,-1,1,-7,0,-1,-1,9
Cc1ccc(C(=O)NCC(=O)NCc2cc(=O)n(C)c(=O)n2C)cc1C,i,3,-8,-11,-3,0,0,-7
COCCNc1c2c(nc3c(-c4ccccc4)c(C)nn13)CCCC2,i,48,10,-9,-1,-10,-10,-3
CCc1nc(NCCN2CCOCC2)c(C#N)c2c1CCCC2,.,20,-5,-10,6,-1,5,8
Fc1ccc(Nc2nc(N/N=C/c3ccco3)nc(N3CCCCC3)n2)cc1,i,1,5,.,-2,-8,0,1

# Given with two lines to a compound: entries from further up
# The line under a structure holds: Rce1 inhib | HIV Env fusion | CSC inhib | UUG fidelity | MT1-MMP act inh | MT1-MMP act inh RFP | PABP FP inh | eIF4H inh
Cc1ccc(C(=O)NCC(=O)NCc2cc(=O)n(C)c(=O)n2C)cc1C
→ i | 3 | -8 | -11 | -3 | 0 | 0 | -7
CC(=O)N(Cc1c(C)nn(-c2ccccc2)c1Cl)c1ccc(Cl)cc1
→ i | -131 | -12 | 1 | -7 | -7 | -9 | -6
COCCNc1c2c(nc3c(-c4ccccc4)c(C)nn13)CCCC2
→ i | 48 | 10 | -9 | -1 | -10 | -10 | -3
CN(CCC(=O)Nc1ccc(Cl)cc1)Cc1ccccc1
→ i | -1 | 1 | -7 | 0 | -1 | -1 | 9
O=S(=O)(NCc1ccccc1)c1ccc(-n2cccn2)cc1
→ i | -1 | 7 | -1 | 1 | 0 | -8 | -21
Fc1ccc(Nc2nc(N/N=C/c3ccco3)nc(N3CCCCC3)n2)cc1
→ i | 1 | 5 | . | -2 | -8 | 0 | 1

# Additional compounds follow:
SMILES,Rce1 inhib,HIV Env fusion,CSC inhib,UUG fidelity,MT1-MMP act inh,MT1-MMP act inh RFP,PABP FP inh,eIF4H inh
Brc1ccc2c(c1)OCCOCCOCCOCCOCCO2,i,.,-1,.,-2,2,-24,-6
CCOC(=O)C1CCN(c2c(-c3ccccc3)c3cc(Cl)ccc3[nH]c2=O)CC1,i,10,-8,.,-8,-7,-6,-4
COc1cccc2c1oc1c(SCc3nc4ccccc4[nH]3)nc(C)nc12,.,-8,.,-20,-16,0,.,.
CC1=CN2C(=NC(=O)CC2(C)C(=O)N(CC(=O)NC2CCCC2)c2cc(C)cc(C)c2)C=C1 (configuration not stated),i,-4,-8,.,-6,-1,-9,0
O=C(Cn1[nH]c(=O)c2ccccc2c1=O)NCc1cccnc1,i,-32,-27,-4,14,6,1,5
O=C(O)CNc1nc(NCc2ccc(Cl)cc2)ccc1[N+](=O)[O-],.,-18,.,-7,2,6,.,.
CC1=C(C(=O)OC2CCCCCCC2)C(c2cccc(O)c2)NC(=O)N1 (configuration not stated),i,.,-3,.,-4,-6,-14,-12
COC(=O)/C=C1\S/C(=N/N=C/c2ccco2)NC1=O,i,-5,7,-27,-1,-3,83*,61*
CCOc1ccc(S(=O)(=O)n2cnc(C)c2)cc1,i,-9,-1,-14,3,-3,-5,-17
CC(C)N=C(Nc1ccc(Cl)cc1)c1cccnc1,i,-2,-14,-13,5,6,-8,-7
CN1C2CCC1CC(NC(=O)c1cc(Cl)cc3[nH]cnc13)C2 (configuration not stated),i,11,0,-16,-2,-1,-6,-1
